Sfp PPTase inh – qHTS Assay for Inhibitors of Bacillus subtilis Sfp phosphopantetheinyl transferase (PPTase) | 4'-phosphopantetheinyl transferase ffp (Bacillus subtilis), Q9F4F7 | Biochemical Sfp PPTase activity, qHTS | Potency, µM, without a hit: max response, negative = inhibition, actives largely listed as inhibitors | 310,000 compounds, 3.5% hits | AID 1490, 2009; active = well fitted inhibition curve with a large enough effect; inconclusive = small, poorly fitted or top-dose-only effect, or another doubt; inactive = no such curve, though single readings can be large or run the other way;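 note: the enzyme is Sfp with the accession as filed and its product quenches rhodamine fluorescence; potency is the fitted concentration of half-maximal effect; 0% = enzyme reaction without inhibitor and -100% = no enzyme wells; top concentration of the series not given in the record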
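Buffer: 50 mM Hepes-Na pH 7.6, 10 mM MgCl2, 0.01% Nonidet P-40, 0.01% BSA. Enzyme 15 nM, pre-exposed to compound 15 min; substrates then added and fluorescence change tracked over 30 min.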
TRPML1 inh – qHTS for Inhibitors of the Human Mucolipin Transient Receptor Potential 1 (TRPML1). Mucolipin-1 (Homo sapiens), Q9GZU1. TRPML1-inducible cells, Ca2+ dye fluorescence, FDSS; hits give low values; inhibition of EC80 agonist-evoked calcium signal. activity change, negative = inhibition, % (concentration not given with the values). 390,000 compounds, 0.02% hits; in the data active means activity change below about -50%; inconclusive means about -30% to -50%; inactive means above about -30%;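 note: stimulus is agonist 54-4 at its EC80 concentration; % is set by controls: 0 for no effect and ±100 for the full control effect; the text of the record puts the active cut at -80%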
Target sequence (Q9GZU1 whole entry, looked up): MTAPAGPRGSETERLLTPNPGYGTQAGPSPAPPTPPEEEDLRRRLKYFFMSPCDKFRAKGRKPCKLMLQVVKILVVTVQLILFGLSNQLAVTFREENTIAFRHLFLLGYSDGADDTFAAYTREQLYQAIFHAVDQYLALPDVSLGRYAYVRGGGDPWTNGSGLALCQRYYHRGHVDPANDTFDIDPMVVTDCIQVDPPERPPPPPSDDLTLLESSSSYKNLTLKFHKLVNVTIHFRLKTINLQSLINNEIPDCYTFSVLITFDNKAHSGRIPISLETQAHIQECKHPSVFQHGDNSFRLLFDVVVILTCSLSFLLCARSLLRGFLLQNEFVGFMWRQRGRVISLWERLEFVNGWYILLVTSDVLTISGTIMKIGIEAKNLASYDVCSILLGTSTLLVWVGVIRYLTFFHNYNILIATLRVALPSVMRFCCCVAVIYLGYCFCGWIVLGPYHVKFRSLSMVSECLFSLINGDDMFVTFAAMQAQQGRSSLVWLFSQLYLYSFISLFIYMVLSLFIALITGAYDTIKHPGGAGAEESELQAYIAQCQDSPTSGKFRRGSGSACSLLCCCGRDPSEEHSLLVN
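Tet-induced TRPML1-DL cells loaded with Ca8 no-wash calcium dye were read kinetically on FDSS. Compound addition was followed by EC80 agonist 54-4 (4 uM final); inhibition was read over 110 s.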
ClpP mod – qHTS Assay for Activators of ClpP. 340,000 compounds, 1.9% hits. purified B. subtilis ClpP, FRET peptide cleavage, 20 min. Potency, µM (top dose mostly 57.5 µM), inactives show top-dose activity change, negative = active. AID 651965, 2013; active = well fitted falling curve with a large enough effect; inconclusive = small, poorly fitted or top-dose-only effect; inactive = no such curve, though single readings can be large or run the other way; note: potency is the fitted concentration of half-maximal effect; the source files actives as falling curves though it sought activators and does not explain the sign; nearly all actives have a fitted effect of over 65% in size; many hits overshoot -100%
Target sequence (P80244 whole entry, looked up): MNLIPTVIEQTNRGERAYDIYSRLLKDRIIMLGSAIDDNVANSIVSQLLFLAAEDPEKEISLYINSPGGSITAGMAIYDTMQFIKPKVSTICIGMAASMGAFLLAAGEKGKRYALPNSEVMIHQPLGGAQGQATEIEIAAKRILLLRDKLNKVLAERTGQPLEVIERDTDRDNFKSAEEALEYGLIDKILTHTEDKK
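Purified B. subtilis ClpP, 10 microg/mL final in Tris/HCl pH8 with KCl, BSA, glycerol and Tween-20, cleaved an Abz/nitrotyrosine-quenched decapeptide. Fluorescence (ex 320, em 430) was read at 0 and 20 min at room temperature. Delta was normalized to 5.8 microM ADEP and DMSO/no-enzyme controls.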
PINK1 expr mod – A Quantitative High throughput Screen to Identify Chemical Modulators of PINK1 Expression | PINK1 immunofluorescence, high-content cytometry, 24 h | Potency, µM (highest dose often 76.6 µM), for inactives: at the highest dose activation (PINK1 increase), hits mostly activators | 410,000 compounds, 0.2% hits | AID 624263, 2012; active = well fitted activation curve with a large enough effect; inconclusive = small, poorly fitted or top-dose-only effect; inactive = flat fitted curve, though single readings scatter; cell line not stated here;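 note: potency is the fitted concentration of half-maximal effect; % of control where 0% means no effect; nearly all actives have a fitted effect of over 65% in size; a mitochondrial uncoupler was the plate control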
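Compound titrations (5 concentrations, 24 h) on a stable cell line; DMSO and CCCP controls. Endpoint: fixed-cell PINK1 immunofluorescence with mitochondrial, cell and nuclear markers, scanned by microplate cytometer.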
TRPML1 agonist – qHTS for Agonists of the Human Mucolipin Transient Receptor Potential 1 (TRPML1) | Mucolipin-1 (Homo sapiens), Q9GZU1 | TRPML1-expressing cells, Ca2+ dye fluorescence, FDSS; host cell line not named in the record; reference of the full effect not given here | activation, % (concentration not given with the values) | 410,000 compounds, 0.12% hits | AID 624414, 2012; in the data active = activation above about 50%; inconclusive = about 30% to 50%; inactive = below about 30%; note: 0% is about no effect; the text of the record puts the active cut at 80%
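Tetracycline-induced TRPML1-DL cells are seeded and incubated overnight before loading with a no-wash Ca2+ dye and quencher. Agonist activity is taken from the 110 s fluorescence read following compound pin-transfer on an FDSS, before EC80 54-4 challenge.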
Menin-MLL FL inh – qHTS Assay for Inhibitors Targeting the Menin-MLL Interaction in MLL Related Leukemias: Competition With Fluorescein Labeled MLL-derived Peptide. FP activity change, % at 61.4 µM. Fluorescence polarization, fluorescein-MLL peptide displacement from menin. AID 1766, 2009. 290,000 tested, under 10 active; inconclusive = falling polarisation curve, or a change in total fluorescence; inactive = total fluorescence flat and polarisation flat or rising; no compound was filed as active; the % refers to the polarisation; negative = inhibition;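 note: % of control where 0% means no effect; inhibitors lower the polarisation; unlabelled MLL peptide was the positive control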
TRPV1 PAM – HTS Assay for Compounds that Act as Potentiators of the Vanilloid Receptor 1. Transient receptor potential cation channel subfamily V member 1 (Homo sapiens), Q8NER1. TRPV1-expressing cells, Fluo-8 calcium influx, capsaicin EC20 potentiation; host cell line not named in the record; control for the full effect not named in the record. potentiation, % at 8.33 µM. 320,000 compounds, 0.02% hits; active means potentiation above 80%; inconclusive means 30% to 80%; inactive means below 30%; note: 0% is about no effect
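Cells expressing TRPV1 were dye-loaded with Fluo-8 and read kinetically: 10 s baseline, 3 min after compound (agonist portion), then 2 min after EC20 capsaicin (allosteric enhancer portion). Calcium-bound dye fluorescence at 480/520 nm.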
Starred values were filed as active, the others as inactive; ? = inconclusive; · = no result given; [ ] = dose if it differs, or a comment.

SMILES	Sfp PPTase inh	TRPML1 inh	ClpP mod	PINK1 expr mod	TRPML1 agonist	Menin-MLL FL inh	TRPV1 PAM
c1ccc(CSc2nnc(-c3cccs3)o2)cc1	11%	-10	-6.0%	·	0.0	?	18
CC1=NN(c2ccccc2)C(=O)/C1=C\c1cc(C)n(-c2cccnc2)c1C	-9%	7	1.1%	11%	1.7	0.5	-2
O=C(Nc1ccccc1N1CCN(c2ccc(F)cc2)CC1)C1CCCCC1	13%	5	-1.0%	0.8%	-0.1	1.8	?
COC(=O)c1cn(NC(=O)C2CCCCC2)c(=O)c2ccccc12	8%	-7	-2.8%	-3.1%	2.1	-2.9	-18
CCCOc1ccc(N2C(=O)C/C(=C\c3ccccc3)C2=O)cc1	-10%	30	-24%	2.4%	-0.5	-4.0	15
CC1NC(=O)NC1CCCCCC(=O)NCCc1ccccc1 (configuration not stated)	-4%	-7	-4.5%	-3.4%[38.3 µM]	0.6	1.2	1
N#Cc1nc(COc2ccccc2Cl)oc1N1CCCCCC1	-2%	-5	0.5%	2.4%	-0.4	-5.4	3
COC(=O)CNC(=O)COC(=O)c1ccc(Cl)nc1	12%	0	1.3%	-0.9%	-0.6	-1.0	16
CCC(C)(C)NC(=O)C(c1cccn1C)N(C(=O)Cn1nnc2ccccc21)c1ccc(NC(C)=O)cc1 (configuration not stated)	-2%	8	·	2.2%	-0.4	2.4	3
O=C(CN1CCN(CC(=O)Nc2ccc(F)cc2)CC1)NCC1(N2CCOCC2)CCCCC1	·	9	0.8%	-0.7%	0.3	·	-31
C#CCOCCOCCOCCNc1nc(N2CCN(C(=O)CCCCCCCCCCNC(=O)[C@@H]([C@H](C)O)n3cc(C)nn3)CC2)nc(N2CCN(C(=O)CCCCCCCCCCNC(=O)[C@@H]([C@H](C)O)n3cc(C)nn3)CC2)n1	·	-7	-1.1%	2.6%	1.1	·	?
CCOC(=O)N1CCN(C(=O)c2ccc(OC)c(S(=O)(=O)N3CCOCC3)c2)CC1	26%	32	-1.7%	-0.4%	3.9	-0.6	-7
CCCC(=O)NC(NC(=S)Nc1ccc(S(N)(=O)=O)cc1)C(Cl)(Cl)Cl (configuration not stated)	-3%	5	-2.1%	0.7%	0.0	-0.8	?
CCc1nnc(NC(=O)c2cc(S(=O)(=O)N3CCCCC3)ccc2N2CCOCC2)s1	18%	35	-8.6%	1.6%	0.7	1.1	2
CCN(CC)S(=O)(=O)c1cc(NC(=O)Cn2cnc3ccccc3c2=O)ccc1C	8%	22	-5.0%	-0.2%	2.6	-0.1	-4
Cc1nn(C)cc1/C=N\NC(=O)c1csc2c1CCCC2	8%	4	1.0%	5.1%	0.1	-8.2	-2
CCN(CC)CCOC(=O)C1c2ccccc2Oc2ccccc21	-13%	-7	-0.4%	·	-0.3	0.1	20
CC(C)[C@H](CO)NC(=O)[C@H]1O[C@@H](n2ccc(=O)[nH]c2=O)[C@H](O)[C@@H]1O	·	·	0.0%	3.3%	0.6	·	·
COc1ccccc1-n1nnnc1SC(C)C(=O)NC1CCCC1 (configuration not stated)	·	5	-4.3%	0.3%	-0.1	·	8
Cc1ccc(OCC(=O)NCCS(=O)(=O)N2CCN(c3ccccc3)CC2)cc1	·	19	-1.7%	5.4%	0.3	·	7
Cc1ccccc1Nc1c(-c2c[nH]c3ccccc23)nc2ccc(Cl)cn12	·	18	5µM*	6.8%	2.4	·	·
CCOC(=O)Cc1ccc(NC(=O)n2ncc3cc(Cl)ccc32)cc1	·	-5	-0.6%	0.3%	0.4	·	·
NNC(=O)c1n[nH]c(=O)c2ccccc12	16%	14	-0.6%	1.6%	-0.9	6.0	-26
CN1CCN(CC(O)COc2ccc(Cl)cc2)CC1 (configuration not stated)	19%	19	0.4%	-0.4%	3.8	4.5	?
CCCCc1ccc(/C=C(\C#N)C(N)=S)s1	40µM*	20	·	5.9%	0.7	-1.3	7

Overlap with the part before: 2 entries, followed by the next part.
SMILES	Sfp PPTase inh	TRPML1 inh	ClpP mod	PINK1 expr mod	TRPML1 agonist	Menin-MLL FL inh	TRPV1 PAM
CN1CCN(CC(O)COc2ccc(Cl)cc2)CC1 (configuration not stated)	19%	19	0.4%	-0.4%	3.8	4.5	?
CCCCc1ccc(/C=C(\C#N)C(N)=S)s1	40µM*	20	·	5.9%	0.7	-1.3	7
O=C(Nc1ccc(OCC(F)(F)C(F)F)c(C(F)(F)F)c1)c1ccccc1	·	18	-2.1%	2.1%	2.0	·	·
O=C(Nc1ccccc1)C1CC2CCCC(C1)C2=O (configuration not stated)	12%	13	-0.8%	·	0.1	-0.6	3
CC1Cc2nc(SCC(=O)NCCc3ccccc3)n(C)c(=O)c2S1 (configuration not stated)	0%	24	-0.2%	0.8%	1.3	-0.4	12
CN(C)c1ccc(-c2ccc3ccccc3n2)cc1	·	·	3.5%	1.0%	0.0	·	·
O=CNc1ccc2c3c(cccc13)-c1ccccc1-2	·	6	-0.6%	3.3%	0.2	·	·
Cc1cccc2c(N=Nc3ccc(S(=O)(=O)Nc4ccc(Cl)cc4)cc3[N+](=O)[O-])c(O)[nH]c12	12%	9	·	3.0%	0.7	6.1	1
O=c1[nH]cc(S(=O)(=O)Nc2ccc3c(c2)OCO3)c(=O)[nH]1	·	-3	·	0.0%	1.0	·	6
O=C(c1ccccn1)N(Cc1cc2ccccc2[nH]c1=O)C1CCCCC1	-5%	-7	-16%	0.5%	0.7	0.2	-8
Cc1ccc(NC(=O)Cn2cc(S(=O)(=O)NC(C)C)c(S(=O)(=O)NC(C)C)c2)cc1Cl	·	11	-22%	?	0.8	·	·
Cc1ccc(N=C2C(=O)Nc3ccccc32)cc1	-1%	-7	5.1%	-1.0%	0.1	-1.5	7
Cc1ccc(C(=O)Nc2cc([N+](=O)[O-])ccc2F)s1	3%	-7	5.6%	-1.7%	-0.5	2.8	-5
O=C(COC(=O)c1ccccc1C(=O)c1ccccc1)NCCc1ccccc1	15%	-4	·	0.5%	4.1	5.1	-3
COc1ccc(S(=O)(=O)N2CCOCC2)cc1NC(=O)Cc1ccc2c(c1)OCCO2	·	3	15%	0.9%	-0.4	·	2
CCC(=O)N1CCc2cc(S(=O)(=O)NCCC(=O)NC3CCCCCC3)ccc21	17%	2	-1.1%	-1.4%	-1.3	1.5	-15
Cc1noc(C)c1COc1ccc(CC(=O)NC2CCCCCC2)cc1	11%	1	·	-1.6%	0.9	2.0	-3
N#C/C(=N\Nc1ccccc1)C(N)=S	18µM*	-3	·	-0.3%	1.1	-0.3	-16
O=C(NC1(Cc2ccccc2)CCN(Cc2ccc(-c3ccccc3)cc2)C1=O)c1ccccc1 (configuration not stated)	·	23	-2.6%	-0.5%	1.0	·	12
Cc1nnc(SCC(=O)NCc2ccccc2)[nH]c1=O	-2%	-7	-2.1%	2.4%[38.3 µM]	0.2	0.7	-4
O=C(CCn1cccc1)Nc1cccc(F)c1	15%	9	-0.1%	-0.1%	-0.6	0.3	7
CC(=O)c1cc(-c2ccccc2)n(CC(=O)NC(C)(C)C)c1C	3%	-21	-0.1%	0.5%	0.6	-0.6	3
CCOc1ccc(CCNC(=O)CCNC(=O)c2ccco2)cc1OCC	15%	-1	-1.4%	-0.4%	-0.2	·	18
CCCNC(=O)Cn1sc2nc(C)cc(C)c2c1=O	1.8µM*	·	-21%	4.0%	·	21	-21
O=C(NCC1CCCO1)c1onc(CSc2ccccc2)c1C(=O)O (configuration not stated)	5%	0	2.0%	-0.3%	-0.6	0.8	18
CCNC(=O)C1(C)CCN(C(=O)c2ccc(C(F)(F)F)cc2)C1 (configuration not stated)	·	4	0.0%	0.9%	-0.3	·	·
Cn1cc(C(=O)NCCc2ccccc2)c(=O)c2cc(S(=O)(=O)N3CCCCCC3)ccc21	·	-15	-1.9%	2.2%	0.8	·	·

(next part)
SMILES	Sfp PPTase inh	TRPML1 inh	ClpP mod	PINK1 expr mod	TRPML1 agonist	Menin-MLL FL inh	TRPV1 PAM
O=C(NC1CCN(C(=O)Nc2ccccc2Cl)CC1)c1ccccc1	13%	-6	0.5%	2.2%	1.1	-1.5	1
CCOC(=O)N(C)c1c(CC)nc2c(OCc3ccc(S(C)(=O)=O)cc3)cccn12	·	·	1.3%	0.6%	-0.9	·	·
CN(C)c1cc[n+](CC(=O)N2CCCc3ccccc32)cc1	14%	8	·	0.6%	0.3	-0.6	18
COc1cccc(Cn2cnc(-c3ccccc3OC)c2C2CC2)c1	·	·	-7.7%	2.6%	-0.9	·	·
COC(=O)c1cc(NC(C)=O)ccc1N1CCOCC1	-4%	-5	·	-1.8%	-0.7	7.1	28
OC1COC(c2ccccc2)OC1C(O)C1OC(c2ccccc2)OCC1O (configuration not stated)	·	-8	·	-1.0%	-0.6	·	·
COc1ccccc1N1CCN(S(=O)(=O)c2cn(C)nc2C)CC1	10%	1	-2.3%	0.1%	0.2	·	0
CC(C)(C)SCCNC(=O)CN(c1ccc(F)c(Cl)c1)S(C)(=O)=O	9%	-18	-0.7%	-4.0%[38.3 µM]	1.6	0.2	-2
O=C(N/N=C/c1c[nH]c2ccc(Br)cc12)c1ccn(Cc2ccc(Cl)cc2)n1	5%	2	-22%	-4.6%	0.1	1.4	7
Cc1cc(=O)oc2c(C)c(OC(C)C(=O)NCC3CCC(C(=O)O)CC3)ccc12 (configuration not stated)	12%	·	4.5%	2.7%	·	0.9	2
Cc1ccc(S(=O)(=O)N2CC3=C(C2)C2CC2(C)C3)cc1 (configuration not stated)	·	·	0.5%	0.8%	17	·	·
O=C(NC1CCCC1)C(c1ccccc1)N(C(=O)c1ccno1)c1ccccc1 (configuration not stated)	0%	-8	-0.3%	4.2%	-0.7	0.4	-19
O=c1c(Br)c(N2CCCC2)cnn1-c1ccccc1	4%	-15	1.0%	-0.9%	-0.4	2.0	4
CCCCNC(=O)C1(C)CCCCN1Cc1ccc2ccccc2c1 (configuration not stated)	·	·	?	11%	0.5	·	·

Screening data (PubChem)
